FBW7 act: human FBW7 E3 ligase activation, primary screen; Q969H0; AlphaScreen FBW7–phospho-cyclin E peptide binding, activator screen; normalized activity (activation), % at 26.1 µM; hit rate 0.13% among 650,000; AID 1259310; in the data active = normalized activity above about 1.9%;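 also: purified mutant Fbw7 with reduced substrate affinity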
GPR151 ag: human GPR151 activation | activation, % at 11.2 µM | PathHunter beta-arrestin GPR151 cells, luminescence | Q8TDV0 | hit rate 1% among 650,000 | AID 1508602; in the data active = activation above about 4.9%;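 also: 0% = median of compound wells and 100% = cells with positive control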
Target sequence (Q8TDV0 whole entry, looked up): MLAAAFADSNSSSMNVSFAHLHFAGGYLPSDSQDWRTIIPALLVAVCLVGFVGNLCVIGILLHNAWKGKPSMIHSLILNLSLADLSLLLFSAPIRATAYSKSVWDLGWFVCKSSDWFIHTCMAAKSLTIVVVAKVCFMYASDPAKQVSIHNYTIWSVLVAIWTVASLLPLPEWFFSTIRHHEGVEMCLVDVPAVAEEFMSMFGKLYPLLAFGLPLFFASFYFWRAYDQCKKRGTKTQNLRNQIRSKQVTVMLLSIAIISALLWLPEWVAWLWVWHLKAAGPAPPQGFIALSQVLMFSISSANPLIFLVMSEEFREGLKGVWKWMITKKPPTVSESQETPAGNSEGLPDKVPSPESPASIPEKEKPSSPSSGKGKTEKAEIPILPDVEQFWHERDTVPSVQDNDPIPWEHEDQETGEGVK
* marks the source's active call; other numbers are inactive results.

SMILES | FBW7 act | GPR151 ag
Nc1cccc2c1CN(C1CCC(=O)NC1=O)C2=O (stereo not given) | 0.5 | -2.2
COc1ccc(/C=N/NC(N)=S)cc1OC | 0.1 | -0.2
Nc1nonc1-c1nc2ccccc2n1Cc1ccccc1Cl | -0.4 | -0.9
O=C(COc1ccc(Cl)cc1Cl)Nc1noc2ccccc12 | 0.1 | 0.1
O=C(CC1OC(=O)c2ccccc21)c1cccc(O)c1 (stereo not given) | 0.1 | -0.2
COc1cccc(-c2nc(=S)[nH][nH]2)c1 | 0.0 | 1.1
O=C(O)CN(CCc1ccccc1)S(=O)(=O)c1ccc(Br)cc1 | 0.0 | -1.2
COc1ccccc1-n1c(=O)[nH]c2c(C(N)=O)nc(-c3ccc(Br)cc3)nc21 | 0.6 | -1.6
C=CCc1ccccc1OCC(=O)N/N=C/c1c[nH]c2ccccc12 | 0.0 | 0.2
Cc1ccc(Nc2cccc3nonc23)cc1 | 0.2 | -0.7
CCOc1ccc(-c2nc(C(N)=O)c3[nH]c(=O)n(C4CCCCC4)c3n2)cc1 | 1.3 | -1.3
COc1ccc(CNC(=O)c2cccc([N+](=O)[O-])c2)cc1 | 0.1 | -0.4
Cc1ccccc1/C=C1\SC(=S)NC1=O | -0.2 | -0.3
O=C1CSC(=O)N1Cc1ccccc1F | -0.1 | 0.8
CC(C(=O)Nc1ccccc1C#N)N1C(=O)c2ccccc2C1=O (stereo not given) | -0.1 | 1.1

Compounds listed so far that contain an aryl methoxy group, in the order listed:
SMILES | FBW7 act | GPR151 ag
COc1ccc(/C=N/NC(N)=S)cc1OC | 0.1 | -0.2
COc1cccc(-c2nc(=S)[nH][nH]2)c1 | 0.0 | 1.1
COc1ccccc1-n1c(=O)[nH]c2c(C(N)=O)nc(-c3ccc(Br)cc3)nc21 | 0.6 | -1.6
COc1ccc(CNC(=O)c2cccc([N+](=O)[O-])c2)cc1 | 0.1 | -0.4

The results go on.
SMILES | FBW7 act | GPR151 ag
Cc1ccccc1C(=O)Nc1ncc([N+](=O)[O-])s1 | -0.3 | -7.2
Cc1ccc(S(=O)(=O)N(CCc2ccccc2)CC(=O)O)cc1 | 0.1 | 2.1
Cc1ccc(-c2nc(=S)[nH][nH]2)cc1 | 0.4 | -0.1
Nc1nonc1-c1nc2ccccc2n1Cc1cccc2ccccc12 | 0.1 | 0.5
O=C1Nc2c(Br)cc(Br)cc2C1=O | 0.1 | 0.9
Clc1ccc(C2CC(c3ccccc3)n3ncnc3N2)cc1 (stereo not given) | -0.3 | 1.2
Cc1cc(C)c2nc(Nc3nc(C)cc(=O)[nH]3)nc(C)c2c1 | -0.1 | 1.2
Cc1nc(=O)c(-c2ccccc2)c(C)n1-c1ccc(O)c(C(=O)O)c1 | 0.1 | 2.1
O=C1NC(=O)/C(=C\c2ccc(OCc3ccc(Cl)c(Cl)c3)cc2)N1 | 0.0 | 1.4

Another view of part of the listing above:
canonical_smiles	FBW7 act	GPR151 ag
Cc1nc(=O)c(-c2ccccc2)c(C)n1-c1ccc(O)c(C(=O)O)c1	0.1	2.1
Cc1cc(C)c2nc(Nc3nc(C)cc(=O)[nH]3)nc(C)c2c1	-0.1	1.2
Cc1ccccc1C(=O)Nc1ncc([N+](=O)[O-])s1	-0.3	-7.2
O=C1Nc2c(Br)cc(Br)cc2C1=O	0.1	0.9
Cc1ccc(S(=O)(=O)N(CCc2ccccc2)CC(=O)O)cc1	0.1	2.1
Clc1ccc(C2CC(c3ccccc3)n3ncnc3N2)cc1 (stereo not given)	-0.3	1.2
Nc1nonc1-c1nc2ccccc2n1Cc1cccc2ccccc12	0.1	0.5

The list is partial; most or all hits stand in other tables.
